# Screening data (PubChem)
# VDR inh: vitamin D3 receptor (human) inhibition. P11473. VDR-SRC2-3 peptide fluorescence polarization, 2 h. Potency, µM, inactives show max response, negative = inhibition, most hits filed as inhibitors. 400,000 compounds, 0.93% hits; active = well fitted inhibition curve with a large enough effect; inconclusive = small, poorly fitted or top-dose-only effect, or another doubt; inactive = no such curve, though single readings can be large or run the other way; also: series mostly up to about 120 µM
# Target sequence (P11473 whole entry, looked up): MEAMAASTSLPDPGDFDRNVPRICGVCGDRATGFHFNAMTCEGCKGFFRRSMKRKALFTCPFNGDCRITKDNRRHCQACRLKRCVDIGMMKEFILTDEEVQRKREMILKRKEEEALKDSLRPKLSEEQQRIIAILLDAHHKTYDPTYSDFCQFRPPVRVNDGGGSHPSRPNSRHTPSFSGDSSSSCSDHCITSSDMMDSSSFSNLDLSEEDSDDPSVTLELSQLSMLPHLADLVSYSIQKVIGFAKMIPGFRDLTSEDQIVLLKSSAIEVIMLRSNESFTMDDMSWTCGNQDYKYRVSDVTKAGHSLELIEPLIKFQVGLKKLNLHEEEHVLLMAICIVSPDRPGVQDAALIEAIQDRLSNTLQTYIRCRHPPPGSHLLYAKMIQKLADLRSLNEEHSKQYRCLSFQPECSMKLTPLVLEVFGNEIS
#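 FP read-out; VDR + SRC2-3 coactivator peptide; 23 nl compound by pintool; 2 h RT incubation; reagents held at 4 deg C, protected from light.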
# * marks the source's active call; other numbers are inactive results; ? = inconclusive; & = joins results of further samples. % is scaled to controls: 0 for no effect and ±100 for the full control effect; potency is read from the fitted curve at half-maximal effect. These rows are one share of the data (hit frequency here may not be typical).
Cc1cc(C)cc(NC(=S)N2CCC(C(=O)c3ccc(F)cc3)CC2)c1
- VDR inh = -7%
CCOc1ccccc1NC(=O)C1CCC(=O)N1S(=O)(=O)c1ccc(C)cc1 (centres undefined)
- VDR inh = -16%
Cc1ccc(NC(=O)C2CCN(S(=O)(=O)c3c(C)noc3C)CC2)cc1C
- VDR inh = -1%&-16%
CC(C)n1c(=N)c(C(=O)NC2CCCCC2)cc2c(=O)n3ccccc3nc21
- VDR inh = -5%
O=C(CN1CCN(c2cccc(C(F)(F)F)c2)CC1)N(C1CC1)C1CCS(=O)(=O)C1 (centres undefined)
- VDR inh = 12%
O=C(O)COc1ccc(NC(=O)c2ccc(NC(=O)c3ccco3)cc2)cc1
- VDR inh = 8%
COc1cc(N)n(S(=O)(=O)c2ccc(C)cc2)n1
- VDR inh = -6%
COc1ccc(N2C(=NC(=O)C3CCCCC3)SC3CS(=O)(=O)CC32)c(OC)c1 (centres undefined)
- VDR inh = ?
CC(C)NC1(C(N)=O)CCN(Cc2ccccc2)CC1
- VDR inh = 8%
Cc1cc(NC(=O)c2ccc(C#N)cc2)n(-c2ccccn2)n1
- VDR inh = -15%

COc1ccc(NC(=O)COC(C)=O)cc1OC
- VDR inh = -16%
CS(=O)(=O)c1ccc(NC(=O)CCN2C(=O)C3CC=CCC3C2=O)cc1 (centres undefined)
- VDR inh = 7%
COc1ccc(F)cc1S(=O)(=O)Nc1ccc(C)cc1
- VDR inh = -6%
COc1ccc(N2CCN(S(=O)(=O)CCNC(=O)C3CCCCC3)CC2)cc1
- VDR inh = -15%
Cc1cccc(NC(=O)COc2ccc(-c3nn(C)c(=O)c4ccccc34)cc2)c1
- VDR inh = ?
CCN(CC)S(=O)(=O)c1ccc(OC)c(NC(=O)c2sc3ccccc3c2Cl)c1
- VDR inh = -4%
CCc1ccc(NC(=O)C2CCN(C(=O)N3CC(CC)Oc4ccccc43)CC2)cc1 (centres undefined)
- VDR inh = 11%
Cc1ccc(NC2CCCN(C(=O)c3ccnc(Cl)c3)C2)cc1C (centres undefined)
- VDR inh = 4%
OC(COCc1ccccc1)CN1CCCC1 (centres undefined)
- VDR inh = -14%
CC1CCC(NC(=O)CN(C)S(=O)(=O)c2cccc3cccnc23)CC1 (centres undefined)
- VDR inh = -15%

CC(=O)Nc1ccc(S(=O)(=O)Nc2cccc(NC(=O)C(C)(C)C)c2)cc1
- VDR inh = -16%
CCOC(=O)C1CCN(C2CCN(C(=O)c3oc4c(F)cccc4c3C)CC2)CC1
- VDR inh = -11%
Cc1ccc(C(=O)NC(C)c2ccc(-n3ccnc3)cc2)o1 (centres undefined)
- VDR inh = 2%
CCC(=O)NC(c1ccc(OC)c(OC)c1)c1cc(Cl)c2cccnc2c1O (centres undefined)
- VDR inh = 2%
CCC(C)c1ccc(OCc2ccc(C(=O)OC)o2)cc1 (centres undefined)
- VDR inh = 15%
CC1(C)CC(=O)c2cnc(N3CCc4ccccc4C3)nc2C1
- VDR inh = 12%
O=C(c1ccc(N2CCC3(CC2)OCCO3)c([N+](=O)[O-])c1)N1CCOCC1
- VDR inh = -16%
O=C(COc1ccccc1)Nc1nonc1NC(=O)COc1ccccc1
- VDR inh = 5%
CCC(C)N(C(=O)Cn1nc(C)c([N+](=O)[O-])c1C)C1CCS(=O)(=O)C1 (centres undefined)
- VDR inh = -3%
O=C(Nc1ccc(Br)cc1Br)C1CC(=O)N(Cc2ccccc2)C1 (centres undefined)
- VDR inh = -21%

O=C(c1ccc(F)cc1)N1CCN(c2ccccn2)CC1
- VDR inh = 0%
Oc1ccc2ccccc2c1C=NCc1cn2ccsc2n1
- VDR inh = 9%
CSCCC(NC(=O)c1ccc(Cl)cc1)C(=O)OCC(=O)Nc1ccc(C#N)cc1 (centres undefined)
- VDR inh = -3%
CN1C(=O)[C@H]2[C@@H](C3CC3)N3C(=O)CN(Cc4ccccn4)C(=O)[C@@]3(Cc3ccccc3)[C@H]2C1=O
- VDR inh = -6%
O=C(COC(=O)C1CC1)NCc1ccc(Cl)cc1Cl
- VDR inh = 7%
COc1ccc2[nH]cc(CCNc3ccnc(-c4ccc(N(C)C)cc4)n3)c2c1
- VDR inh = -18%
CCC1CCCCN1CCCNC(=O)c1ccc2c(c1)NC(=O)CN2C (centres undefined)
- VDR inh = ?
COc1ccc(CNC(=O)CCC(=O)N2CC(C)Oc3ccccc32)cc1 (centres undefined)
- VDR inh = -10%
Cc1cc(C)c(S(=O)(=O)NCCc2cc3ccc(C)c(C)c3[nH]c2=O)c(C)c1
- VDR inh = -5%&-7%
COc1ccc(-n2nnnc2SCC(=O)Nc2nnc(C)s2)cc1OC
- VDR inh = 6%

COC(=O)C1=C[C@@H](C(=O)OC)[C@@H]2C3=C(C(=O)[C@]2(CC(C)C)NC(=O)c2ccccc2)[C@H](C)n2c(=O)n(-c4ccccc4)c(=O)n2[C@@H]3C1
- VDR inh = -11%
Clc1ccc(/C=N\Nc2ccccc2)cc1
- VDR inh = -20%
O=C(Nc1ccccc1)c1ccc(NCCN2C(=O)CCC2=O)c([N+](=O)[O-])c1
- VDR inh = -26%
Cc1ccc(S(=O)(=O)/N=C(/Nc2ccc(F)cc2F)c2ccc(F)cc2)cc1
- VDR inh = -12%
CCCCNC(=O)c1cn(CC)c2cc(N3CCN(C(=O)c4ccco4)CC3)c(F)cc2c1=O
- VDR inh = -2%
CC1CN(c2nnc(-c3ccccc3)c3ccccc23)CC(C)O1 (centres undefined)
- VDR inh = -30%
O=C(CN1CCc2ccccc21)Nc1ccc2c(c1)OCO2
- VDR inh = 24%
O=S(=O)(NCCNS(=O)(=O)c1cccs1)c1cccs1
- VDR inh = 12%
CC1(c2ccc(Cl)c(Cl)c2)NC(=S)N2C1NC(=S)N2c1ccccc1 (centres undefined)
- VDR inh = -16%
CN(C(=O)c1ccccc1[N+](=O)[O-])c1ccccc1C(=O)NCc1ccccc1
- VDR inh = -10%

# Next section.
SMILES	VDR inh
CCc1ccc(NC(=O)N2CCC(c3ccccc3)C2)cc1 (centres undefined)	3%
CCCCCCn1c(C(C)O)nc2ccccc21 (centres undefined)	1%
Cc1ccccc1NC(=O)Cn1c(=O)n(Cc2ccc3c(c2)OCO3)c(=O)c2ccc(C(=O)NC3CCCCC3)cc21	8%
COc1ccc(C(=O)Nc2ccc3nc(C)sc3c2)cc1OC	13%
O=c1c(-c2cc(-c3ccccc3)nc3c2COc2ccc(Cl)cc2-3)coc2ccccc12	3%
Cc1ccc(N(C)C(=O)C2CCCN2S(=O)(=O)c2cccc3nsnc23)cc1 (centres undefined)	-9%
O=C(COC(=O)c1ccc(S(=O)(=O)N2CCCCC2)cc1)Nc1ccccc1Cl	1%
CC1Sc2ccc(S(=O)(=O)NCCc3ccc(Cl)cc3)cc2NC1=O (centres undefined)	2%
CCN(c1ccccc1)S(=O)(=O)c1ccc(C(=O)NCc2ccccn2)cc1	-14%
CCOc1ccccc1NC(=S)N(CCCN1CCOCC1)Cc1cn(C)c2ccccc12	-2%
CCCC(=O)c1cc(F)c(N2CCN(CCC#N)CC2)cc1C	?
COc1ccc(-c2noc(-c3ccc(NCc4cccnc4)c([N+](=O)[O-])c3)n2)cc1	-1%
CCn1c(=O)c2cc(C(=O)NC3CCC(C)CC3)sc2c2ccccc21 (centres undefined)	-15%
CCCCCCCC(=O)OC[C@H](CO)OC(=O)CCCCCCC	3%&4%
CC(C)(C)c1cc(C(=O)NNc2cc(C(F)(F)F)ccc2Cl)n(Cc2ccccc2)n1	15%
Cc1csc(=Nc2c(C)n(C)n(-c3ccccc3)c2=O)n1-c1ccccc1	0%
COc1ccc(CCn2c(=N)c(C(=O)N3CCN(C)CC3)cc3c(=O)n4ccccc4nc32)cc1	-1%
C/C(=N/NC(=O)CNC(=O)c1ccc2c(c1)OCO2)c1ccc2c(c1)CCCC2	-8%
Cc1ccn2c(CNCCCn3cccn3)c(C(=O)N3CCCCCC3)nc2c1	16%
Cc1cc(Cl)c2oc(C(=O)N(C)CCCN3CCOCC3)c(C)c2c1	-8%
O=C(O)CCCCCCCCc1cn(CCc2c[nH]c3ccccc23)nn1	-8%
C=CCNC(=S)NNC(=O)c1ccc2c(c1)OCO2	1%
CCOC(=O)CCn1nc(-c2ccccc2)cc1N	3%
CCNc1nc(NCC)nc(OCCOC(C)=O)n1	16%
Cc1cccc(NC(=S)NC(C)C(c2cccs2)N2CCN(C)CC2)c1C (centres undefined)	-21%

# The results go on.
SMILES	VDR inh
COc1ccc(-c2cc(C(=O)NCCc3ccc(S(N)(=O)=O)cc3)c3ccccc3n2)cc1	-18%
Cc1ccc(N2C(=O)CS(=O)(=O)C23C(=O)Nc2ccccc23)cc1C (centres undefined)	4%
COc1ccc(-c2coc3c(C)c4oc(=O)c(CC(=O)O)c(C)c4cc23)cc1	1%
Cc1cc2ncc(-c3ccc(Cl)cc3)c(N)n2n1	-29%
CC(C)(C)Cc1nnc(NC(=O)c2cc(-c3ccccc3)nc3ccccc23)s1	-1%
CCC(C(=O)OCC(=O)Nc1ccc2[nH]c(=O)[nH]c2c1)c1ccccc1 (centres undefined)	-12%
O=C(Cc1cccs1)N1CCC(c2nc3c(nnn3Cc3ccc(F)cc3)c(=O)[nH]2)CC1	13%
CCOC(=O)c1c(C)[nH]c(C)c1S(=O)(=O)N(C)CC(=O)Nc1ccccc1	-11%
O=C1CCNc2c(Cl)cc(Cl)cc21	9%
CCS(=O)(=O)Nc1cccc(C2=NN(S(=O)(=O)c3ccccc3)C(c3cccs3)C2)c1 (centres undefined)	6%
O=S(=O)(c1ccc(Br)cc1)c1nnn2c1nc(NC1CCCCCC1)c1sccc12	6%
Cc1ccc(C(=O)Nc2nnc(S(=O)(=O)N(C)Cc3ccco3)s2)cc1	-4%
CCCN(CCC)C(=O)CC(c1ccccc1)C1CCOC(C)(C)C1 (centres undefined)	-20%
CCCCN(CCCC)CC(O)Cn1c2ccccc2c(=O)c2ccccc21 (centres undefined)	11%
COCCNC(=S)N/N=C(\C)c1ccccc1F	-10%
CCN1CCN(S(=O)(=O)c2ccc(Cl)c(C(=O)N(CCc3ccccc3)Cc3ccccc3)c2)CC1	-6%
COc1ccc(NC(=O)c2cccn(CC=C(C)C)c2=O)cc1	13%
CCc1ccc(OCC(=O)Nc2c(C(=O)c3ccc(Br)cc3)oc3ccccc23)cc1	-14%
Cc1nn(-c2ccccn2)c2c1-c1nc(N3CCOCC3)ncc1CC2	-6%
Cc1cccc(NC(=O)Nc2nnc(-c3ccccc3)o2)c1	3%
CS(=O)(=O)N1CCN(C(=O)Cc2ccccc2Cl)CC1	12%
COCCC(=O)Nc1ccc2c(c1)CN(C(=O)c1ccc(CSC)o1)CC2	-30%
Cc1ccc(C(=O)NC(=O)CSc2nnc(C)s2)cc1	13%
O=C(O)c1cccc(S(=O)(=O)N2CCC(Cc3ccccc3)CC2)c1	-7%
Cn1c(=O)c2c(nc(Oc3ccc4ccccc4c3)n2C)n(C)c1=O	-6%

# Next section
SMILES	VDR inh
COc1ccc(OC)c(C2=Nn3c(nnc3-c3cccc(OC(C)C)c3)SC2)c1	-4%
OCCCc1nc2n(n1)C(c1ccccc1)C=C(c1ccc(F)cc1)N2 (centres undefined)	6%
COC(=O)c1[nH]c2ccc(C)cc2c1NS(=O)(=O)c1ccc(F)cc1	-1%
Cc1ccc(NC(=O)c2cc(=O)n(Cc3ccccc3)c(=O)[nH]2)cc1C	?
CC(=O)C1=C(C)NC(SCC(N)=O)=C(C#N)C1C (centres undefined)	?
CC(C)(C)c1ccc(-c2nc(SCC(=O)Nc3ccc(Cl)cc3)[nH]c(=O)c2C#N)cc1	2%
CCc1nnc(NS(=O)(=O)c2ccc(NC(=O)c3ccco3)cc2)s1	6%
O=C(NC1CCC(O)CC1)c1cc(-c2ccco2)nc2ccccc12 (centres undefined)	-24%
Cc1ccc(CC(=O)Nc2ccc3c(c2)N(C)C(=O)c2ccccc2S3)cc1	-23%
O=C(CCNC(=O)c1ccco1)NCCN1C(=O)S/C(=C\c2ccc(F)cc2)C1=O	-10%
CN1CCC(=NNC(=O)CN(c2ccc(Oc3ccccc3)cc2)S(C)(=O)=O)CC1	2%
CCCCCCCNC(=O)C1(CC2CC(c3cccc(Br)c3)=NO2)CCN(C(=O)c2ccccc2)CC1 (centres undefined)	-22%
COc1cc(/C=C2\C(=O)NN(c3ccc(C)cc3)C2=O)cc([N+](=O)[O-])c1O	?
Cc1ccc(C2(CCNCc3ccc(N(C)C)cc3)CCOC(C(C)C)C2)cc1 (centres undefined)	-2%
O=c1cc(CSc2ccccc2)[nH]c2ccc(F)cc12	-1%
Cc1ccc(Cn2c(=O)c3c(ncn3C)n(C)c2=O)cc1	0%

# Of the compounds above, 15 contain fluorine:
SMILES	VDR inh
Cc1cc(C)cc(NC(=S)N2CCC(C(=O)c3ccc(F)cc3)CC2)c1	-7%
O=C(CN1CCN(c2cccc(C(F)(F)F)c2)CC1)N(C1CC1)C1CCS(=O)(=O)C1 (centres undefined)	12%
COc1ccc(F)cc1S(=O)(=O)Nc1ccc(C)cc1	-6%
CCOC(=O)C1CCN(C2CCN(C(=O)c3oc4c(F)cccc4c3C)CC2)CC1	-11%
O=C(c1ccc(F)cc1)N1CCN(c2ccccn2)CC1	0%
Cc1ccc(S(=O)(=O)/N=C(/Nc2ccc(F)cc2F)c2ccc(F)cc2)cc1	-12%
CCCCNC(=O)c1cn(CC)c2cc(N3CCN(C(=O)c4ccco4)CC3)c(F)cc2c1=O	-2%
CCCC(=O)c1cc(F)c(N2CCN(CCC#N)CC2)cc1C	?
CC(C)(C)c1cc(C(=O)NNc2cc(C(F)(F)F)ccc2Cl)n(Cc2ccccc2)n1	15%
O=C(Cc1cccs1)N1CCC(c2nc3c(nnn3Cc3ccc(F)cc3)c(=O)[nH]2)CC1	13%
COCCNC(=S)N/N=C(\C)c1ccccc1F	-10%
OCCCc1nc2n(n1)C(c1ccccc1)C=C(c1ccc(F)cc1)N2 (centres undefined)	6%
COC(=O)c1[nH]c2ccc(C)cc2c1NS(=O)(=O)c1ccc(F)cc1	-1%
O=C(CCNC(=O)c1ccco1)NCCN1C(=O)S/C(=C\c2ccc(F)cc2)C1=O	-10%
O=c1cc(CSc2ccccc2)[nH]c2ccc(F)cc12	-1%
